D2 agonist: activates the human D2 dopamine receptor | P14416 | DiscoveRx PathHunter D2 beta-arrestin, luminescence, 90 min; 100% = 57 uM dopamine signal | activation, % (concentration not given with the values) | 0.084% of 360,000 active; in the data active = activation above about 40%; inconclusive = about 15% to 40%; inactive = below about 15%; further: compound concentration not given in the record; the text of the record calls up to 30% inactive
Target sequence (P14416 whole entry, looked up): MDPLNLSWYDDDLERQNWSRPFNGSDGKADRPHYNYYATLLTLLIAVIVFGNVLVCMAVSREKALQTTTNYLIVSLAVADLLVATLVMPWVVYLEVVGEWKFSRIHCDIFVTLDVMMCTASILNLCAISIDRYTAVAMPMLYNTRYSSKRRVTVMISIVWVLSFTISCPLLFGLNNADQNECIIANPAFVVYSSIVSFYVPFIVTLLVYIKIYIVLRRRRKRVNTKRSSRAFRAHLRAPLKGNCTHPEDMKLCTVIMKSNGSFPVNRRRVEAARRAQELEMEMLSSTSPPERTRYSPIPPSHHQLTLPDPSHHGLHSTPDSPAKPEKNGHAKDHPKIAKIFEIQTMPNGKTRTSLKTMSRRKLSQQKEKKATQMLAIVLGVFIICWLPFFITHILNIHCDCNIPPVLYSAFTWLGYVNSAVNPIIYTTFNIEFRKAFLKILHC
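DiscoveRx PathHunter D2 beta-arrestin cells (2,100/well) attached overnight, then compound-stimulated 90 min at 37 C in HBSS/10 mM HEPES/0.1% Tween-20 buffer; beta-galactosidase complementation read by luminescence after 1 h at ambient temperature. Dopamine 57 uM final (EC100) as control.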
Sfp inh: Sfp phosphopantetheinyl transferase inhibition; 3.5% of 310,000 active; AID 1490; Potency, µM, for the others: max response, negative = inhibition, actives largely listed as inhibitors; Q9F4F7; Biochemical Sfp PPTase activity, qHTS; active means well fitted inhibition curve with a large enough effect; inconclusive means small, poorly fitted or top-dose-only effect, or another doubt; inactive means no such curve, though single readings can be large or run the other way;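 further: the enzyme is Sfp with the accession as filed and its product quenches rhodamine fluorescence; potency means the concentration at half of the fitted maximal effect; 0% = enzyme reaction without inhibitor and -100% = no enzyme wells; top concentration of the series not given in the record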
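Fluorescence-quenching assay: 15 nM Sfp-PPTase preincubated 15 min at room temperature with compound, then 5 uM rhodamine-CoA and 12.5 uM BHQ-2-labelled YbbR peptide added. Fluorescence (ex 525/em 598 nm) read at start and after 30 min; difference gives rate.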
D2 PAM: positive allosteric modulators of human D2 dopamine receptor; P14416; 0.23% of 360,000 active; DiscoveRx D2 beta-arrestin cells, luminescence, 90 min; 100% = 57 uM dopamine signal; potentiation, % (concentration not given with the values); AID 624464; active = potentiation of 50% or more; inconclusive = 30% to 50%; inactive = 30% or less;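 further: compound concentration not given in the record; tested on top of an EC20 dose of dopamine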
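PathHunter D2 cells, attached overnight at 37 deg C, received compound in DMSO plus dopamine at EC20 (50 nM final) for 90 min at 37 deg C. Beta-arrestin recruitment was read as luminescence after 1 h with detection reagent at ambient temperature.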
CtBP-E1A blk: inhibitors of CtBP/E1A interaction | activity change, % (concentration not given with the values) | AlphaScreen GST-E1A/His-CtBP binding, 1536-well; active compounds read low; control for the full effect not named in the record | 0.49% of 340,000 active; in the data active means activity change below about -65%; inconclusive means about -30% to -65%; inactive means above about -30%; further: on the % scale 0 is the no-effect control and ±100 the full control effect
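In 5 uL wells, 23 nL compound meets equimolar GST-E1A and His-CtBP (5X stock 125 nM each) for 2 h, 37 °C. Beads (5X, 50 ug/mL) then 1 h, 37 °C, dark.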
TRPV1 potentiator: enhances activation of the human vanilloid receptor TRPV1 | 0.02% of 320,000 active | TRPV1-expressing cells, Fluo-8 calcium influx, capsaicin EC20 potentiation; host cell line not named in the record; control for the full effect not named in the record | potentiation, % at 8.33 µM; active means potentiation above 80%; inconclusive means 30% to 80%; inactive means below 30%; further: 0% is about no effect
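Cells expressing TRPV1 were dye-loaded with Fluo-8 and read kinetically: 10 s baseline, 3 min after compound (agonist portion), then 2 min after EC20 capsaicin (allosteric enhancer portion). Calcium-bound dye fluorescence at 480/520 nm.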
PINK1 modulator: modulators of PINK1 expression; PINK1 immunofluorescence, high-content cytometry, 24 h; Potency, µM (doses to about 76.6 µM), for the others: top-dose activation (PINK1 increase), actives largely listed as activators; 0.2% of 410,000 active; active = well fitted activation curve with a large enough effect; inconclusive = small, poorly fitted or top-dose-only effect; inactive = flat fitted curve, though single readings scatter; cell line not stated here;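 further: potency means the concentration at half of the fitted maximal effect; % of control where 0% means no effect; nearly all actives have a fitted effect of over 65% in size; a mitochondrial uncoupler was the plate control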
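PINK1 protein, normally rapidly degraded, was detected by immunofluorescence after 24 hour compound treatment of a stable cell line. Titration data (5 concentrations) came from laser-scanning cytometry, with CCCP-treated wells as controls.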
Six1-Eya2 blk: Six1/Eya2 interaction inhibition; Q15475+O00167; AlphaScreen GST-Six1/His-Eya2 binding, biochemical; active compounds read low; control for the full effect not named in the record; activity change, % (no concentration beside the values); 0.56% of 360,000 active; AID 651725; in the data active = activity change below about -65%; inconclusive = about -30% to -65%; inactive = above about -30%; further: on the % scale 0 is the no-effect control and ±100 the full control effect
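AlphaScreen luminescence read after one hour at 37 °C in darkness. Pin-transferred compounds met GST-Six1 and His-Eya2 protein (5X stock 250 nM/500 nM) plus glutathione donor and Ni-chelate acceptor beads (5X, 50 ug/mL).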
Numbers without * were called inactive; ? = inconclusive; / = no result given; [ ] = another dose, or the depositor's remark.

Each structure is followed by: D2 agonist	Sfp inh	D2 PAM	CtBP-E1A blk	TRPV1 potentiator	PINK1 modulator	Six1-Eya2 blk
1. COc1ccc(CN(Cc2cc3cc(OC)c(OC)cc3[nH]c2=O)C(=O)NC2CCCCC2)cc1
→ -1.4	10%	-7	8	-1	20%	-1
2. Cc1cccc(NC(=S)N2N=CCC2c2ccccc2)c1 (centres undefined)
→ 2.8	-5%	5	-5	7	-2.9%	6
3. COCc1cc(C)nc2sc(C(=O)N3CCCCC3)c(N)c12
→ -0.6	79µM*	-8	19	-4	5.1%[38.3 µM]	12
4. CCc1ccc(N(C2C=CS(=O)(=O)C2)S(=O)(=O)c2ccc(C)cc2)cc1 (centres undefined)
→ -2.4	10%	-9	-3	-11	0.2%	9
5. COc1cc(OC)cc(C(=O)NC2CCN(Cc3nnnn3Cc3ccc(F)cc3)CC2)c1
→ -0.7	17%	-1	/	23	-0.7%	1
6. CCc1nnc(NC(=O)c2cc(-c3ccccn3)nc3ccc(Br)cc23)s1
→ -1.7	4%	-30	-5	-5	3.9%	-2
7. CCCc1ccc(C(O)c2ncc(-c3ccccc3)[nH]2)cc1 (centres undefined)
→ -4.0	/	-18	-27	/	4.8%	-2
8. Cc1nn(CC(C)C)c2sc(C(=O)NC3CC(C)(C)NC(C)(C)C3)cc12
→ -7.2	12%	-25	-7	-3	-0.9%	-5
9. CCCS(=O)(=O)NC(=O)C1(C)CCN(C(=O)c2cncc(Br)c2)C1 (centres undefined)
→ -1.9	/	-2	1	/	1.3%	-5
10. CCC(c1nnnn1C(C)(C)C)N1CCN(C2CCCC2)CC1 (centres undefined)
→ -2.2	13%	16	-3	-6	-0.5%	4

The listing continues.
Each structure is followed by: D2 agonist	Sfp inh	D2 PAM	CtBP-E1A blk	TRPV1 potentiator	PINK1 modulator	Six1-Eya2 blk
11. C=C1CCC[C@]2(C)C[C@H]3OC(=O)C(CNCCN(CC)CC)[C@H]3CC12 (some centres undefined)
→ -2.2	56µM*	-4	-2	29	7.3%	6
12. O=C(COC(=O)/C=C/c1ccc(S(=O)(=O)N2CCOCC2)cc1)Nc1ccc(F)c(F)c1F
→ -3.7	/	-7	-6	/	2.1%	-1
13. Cc1ccc2c(c1)CCCN2C(=O)NC1CCCCC1
→ -5.6	?	-4	8	-18	1.1%	5
14. COc1ccc(CCNC(=O)/C(=C/c2cccnc2)NC(=O)c2ccccc2)cc1
→ -3.3	22%	-9	-21	-3	2.1%	2
15. O=c1[nH]c2ccc(NS(=O)(=O)c3ccc([N+](=O)[O-])cc3)cc2[nH]1
→ ?	-22%	24	-1	1	0.2%	-2
16. CCOC(=O)COC(=O)c1ccc(O)cc1
→ -0.2	12%	0	-3	1	0.0%[38.3 µM]	1
17. CNC(C)c1ccc(S(N)(=O)=O)cc1 (centres undefined)
→ -0.1	7%	-5	1	1	0.8%	-1
18. Cc1nc(Nc2ccc3c(c2)OCCO3)c2oc3ccccc3c2n1
→ -0.5	-20%	4	-5	-3	1.5%	-5
19. Cc1cc(C)nc(N/N=C/c2cc(C)n(CC(F)(F)F)c2C)n1
→ -7.3	20%	-1	/	1	0.5%	-6
20. COC(=O)CSc1nnc2n(C3CCCCC3)c(=O)c3c4c(sc3n12)CCCC4
→ -3.9	-23%	-12	-10	-10	/	-1

Random excerpt: 3 records from the list
Each structure is followed by: D2 agonist	Sfp inh	D2 PAM	CtBP-E1A blk	TRPV1 potentiator	PINK1 modulator	Six1-Eya2 blk
20. COC(=O)CSc1nnc2n(C3CCCCC3)c(=O)c3c4c(sc3n12)CCCC4
→ -3.9	-23%	-12	-10	-10	/	-1
1. COc1ccc(CN(Cc2cc3cc(OC)c(OC)cc3[nH]c2=O)C(=O)NC2CCCCC2)cc1
→ -1.4	10%	-7	8	-1	20%	-1
12. O=C(COC(=O)/C=C/c1ccc(S(=O)(=O)N2CCOCC2)cc1)Nc1ccc(F)c(F)c1F
→ -3.7	/	-7	-6	/	2.1%	-1

Further compounds follow:
Each structure is followed by: D2 agonist	Sfp inh	D2 PAM	CtBP-E1A blk	TRPV1 potentiator	PINK1 modulator	Six1-Eya2 blk
21. CC(NCC(=O)Nc1cc(S(=O)(=O)N2CCOCC2)ccc1N1CCOCC1)c1ccco1 (centres undefined)
→ 5.3	/	-2	2	12	0.2%	0
22. C=CCNC(=S)NNc1nc2c(c(=O)[nH]1)C1(CCCC1)Cc1ccccc1-2
→ 1.8	?	2	0	10	7.8%	-20
23. O=C(Nc1ccc(C(=O)NN2C(=O)c3ccccc3C2=O)cc1)c1ccccc1
→ 0.0	20%	-39	/	6	0.3%	7
24. CCn1c(COc2ccccc2Cl)nnc1SCC(=O)Nc1ncccc1C
→ 1.9	12%	5	7	-3	-1.8%	7
25. Cc1ccc(NCc2n[nH]c(=S)n2Cc2ccccc2)cc1Cl
→ ?	5%	-16	-17	?	2.3%	-4
26. CCCC(=O)Nc1nnc(SCC(=O)Nc2ccc3c(c2)OCO3)s1
→ -4.7	2%	15	-3	?	29%	3
27. C[C@@H]1CCCCO[C@H](CN(C)S(=O)(=O)c2cn(C)cn2)[C@H](C)CN([C@@H](C)CO)C(=O)c2cc(NC(=O)c3ccccc3)ccc2O1
→ -3.1	/	6	7	/	0.3%	8
28. Cn1nc([N+](=O)[O-])nc1N1CCN(c2ccc(F)cc2)CC1
→ -1.9	13%	-2	2	-27	-0.9%[38.3 µM]	4
29. COc1ccc(C(=O)NC(=S)Nc2ccc(S(N)(=O)=O)cc2)cc1
→ -3.4	?	2	0	5	-0.8%	-1
30. Cc1c(Cl)cccc1Nc1nc(N)nc(CSCCO)n1
→ -0.9	8%	-8	0	-21	-0.2%	3

Later entries.
Each structure is followed by: D2 agonist	Sfp inh	D2 PAM	CtBP-E1A blk	TRPV1 potentiator	PINK1 modulator	Six1-Eya2 blk
31. COc1ccc(OCC(O)CN2CCC(CN3C(=O)c4cccc5cccc(c45)C3=O)CC2)cc1 (centres undefined)
→ -1.6	-2%	-12	?	2	4.7%	-27
32. COc1ccc(OC)c(NC(=O)CN2CCC(NC(=O)c3ccccc3C)CC2)c1
→ -6.5	18%	-1	-5	28	6.8%	-2
33. CCCCN(C)C1CCN(C(=S)Nc2ccc(OCC)cc2)CC1
→ -0.8	17%	-3	-6	6	0.1%	-11
34. CCCOC(=O)C1=C(C)OC23OC(N)=C(C#N)C12C(=O)c1ccccc13 (centres undefined)
→ -0.8	?	-10	-1	15	25%	-1
35. COC(=O)c1c(C)oc(C)c1S(=O)(=O)NCc1ccco1
→ -4.4	1%	1	/	5	-0.7%	1
36. COc1cccc(-c2cnc(C(O)c3cccc(F)c3)[nH]2)c1 (centres undefined)
→ -4.6	/	-8	-18	/	-0.2%	-13
37. CC(C)C(Nc1ccc(C(F)(F)F)cc1[N+](=O)[O-])C(=O)O (centres undefined)
→ -5.1	12%	-12	4	1	1.6%	3
38. CN(C)c1cccc(C(=O)Nc2ccc(S(=O)(=O)Nc3nccs3)cc2)c1
→ 4.0	/	-7	?	/	0.6%	-4
39. CCCC(=O)N(Cc1cc(=O)[nH]c2ccccc12)c1cccc(C)c1
→ -4.5	-15%	-6	2	-14	2.3%	-25
40. Cc1cccc(-c2nnc(-c3ccccc3)o2)c1
→ 0.0	6%	-15	12	-15	1.7%	14

Further entries:
Each structure is followed by: D2 agonist	Sfp inh	D2 PAM	CtBP-E1A blk	TRPV1 potentiator	PINK1 modulator	Six1-Eya2 blk
41. OC(c1cccc(Cl)c1)c1nc(/C=C/c2ccc(C(F)(F)F)cc2)cs1 (centres undefined)
→ 7.4	/	0	19	/	-1.0%	8
42. N#Cc1ccc(-c2ccc(OCC(O)CN3CCCCC3)cc2)cc1 (centres undefined)
→ 0.3	6%	-18	-1	-6	-1.4%	10
43. CCCCNC(=O)Cn1c(=O)c2c(ncn2CCC(C)C)n(Cc2ccccc2)c1=O
→ 0.7	13%	-4	4	-18	7.8%	-7
44. O=C(NC1CCCC1)C(c1ccncc1)N(Cc1ccccc1)C(=O)c1ccc(-c2ccccc2)[nH]1 (centres undefined)
→ -0.9	18µM*	-28	-25	-8	-1.7%	-27
45. COC1CCCN(C(=O)c2cccc(OC3CCN(S(C)(=O)=O)CC3)c2)C1 (centres undefined)
→ -2.1	19%	-7	4	-4	-1.3%	5
46. Cc1cc(C(=O)N/N=C/c2cccc3ccccc23)c(C)o1
→ 0.5	5%	-6	-6	1	6.4%	-16
47. N#Cc1c(-c2ccc(Cl)cc2)ccnc1N1CCOCC1
→ 2.2	12%	-2	0	-1	-0.1%	23
48. Cc1cc(C)c(NC(=S)N(CCN2CCCCC2)Cc2ccco2)c(C)c1
→ -22	-21%	-12	1	17	3.9%	-13
49. Cc1cc(C)c2nc(-c3ccccn3)cc(C(=O)N3CCCC3)c2c1
→ -3.8	?	2	-10	-30	1.8%	-6
50. NC(=O)C1CCN(C(=O)Cc2ccc([N+](=O)[O-])cc2)CC1
→ -1.8	7%	-7	4	-2	-1.5%	10

Next compounds follow:
Each structure is followed by: D2 agonist	Sfp inh	D2 PAM	CtBP-E1A blk	TRPV1 potentiator	PINK1 modulator	Six1-Eya2 blk
51. O=C(c1cn2ccccc2n1)N1CCCC(Nc2ccc(F)c(F)c2)C1 (centres undefined)
→ -1.9	9%	-22	-4	4	-0.3%	-8
52. Cc1ccc(-c2nc(C(=O)NC3CCCCCC3)no2)cc1
→ -2.3	/	-5	2	/	3.0%	7
53. O=C(CCc1nc(-c2ccccc2Cl)no1)NCc1ccco1
→ 3.9	13%	-5	-10	5	1.2%	-2
54. Cc1[nH]c(SCC(=O)c2c(N)n(C)c(=O)n(C)c2=O)nc1Cc1ccccc1
→ 2.0	/	-13	-7	/	-0.6%	-22
55. O=C(NC1CCCC1)c1cccc(S(=O)(=O)N2CCCCC2)c1
→ -0.7	14%	-3	2	-7	-1.4%	15
56. Cc1ccc(S(=O)(=O)NC2c3cccc4cccc(c34)C2Sc2ncccn2)cc1 (centres undefined)
→ 0.2	-12%	-4	-4	-5	-0.1%	1
57. Nn1c(SCc2ccccn2)nncc1=O
→ -2.3	8%	-23	-17	-46	0.6%	-15
58. Cc1ccc(C)c(N(C(=O)c2csnn2)C(C(=O)NC2CCCCC2)c2cccnc2)c1 (centres undefined)
→ 1.1	2%	4	2	?	2.1%	-1
59. Cc1cc(Cl)c2oc(C(=O)NC3CCC(O)CC3)c(C)c2c1 (centres undefined)
→ -6.0	-8%	-25	6	-14	1.0%	-8
60. CCN1CCN(C(=S)NCC2CCCO2)CC1 (centres undefined)
→ 1.6	-22%	-31	/	1	-0.7%	7

Screening data (PubChem)
